# Sa helicase inh: S. aureus DNA helicase inhibition. AID 485395. purified S. aureus helicase, fluorescence unwinding assay; about half of the hits fall short of the stated cut. inhibition, %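 (tested at about 80 µM)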. 120,000 compounds, 0.05% hits;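 active = both duplicates at 50% or more, or one of them with a favoured structure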;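 note: 0% = mean of negative control wells and 100% = mean of positive control wells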
# MgrA DNA FP: modulators of Staphylococcus aureus MgrA DNA binding; fluorescence polarization; inhibition, %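 (about 10 µg/mL by stock and volumes)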; 84,000 compounds, 0.13% hits;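 active = above 50% in either of two replicates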;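 note: 0% = protein plus DNA without compound and 100% = DNA alone without protein; higher means less MgrA bound to DNA so lower polarization; one replicate is shown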
# Starred values were filed as active, the others as inactive; x = not tested or not shown. This is a subset, so the mix of outcomes need not match the whole.
SMILES,Sa helicase inh,MgrA DNA FP
O=C(O)CC(NS(=O)(=O)c1cccc2nsnc12)C(=O)O (centres undefined),2,5.1
O=C(NC12CC3CC(CC(C3)C1)C2)c1cncc(O)c1,1,-1.8
CCCc1ccc(OCC(=O)c2ccc(O)cc2O)cc1,14,x
COC(=O)c1sccc1N/C=C(\C#N)S(=O)(=O)c1cccs1,x,-0.6
CN(C)S(=O)(=O)c1ccc(N2CCOCC2)c(C(=O)Nc2ccc3c(c2)OCCO3)c1,12,x
O=S(=O)(c1ccccc1)N1CCn2cccc2C1c1ccccc1 (centres undefined),5,x
S=c1[nH]nc(-c2cccs2)n1C1CCCCC1,13,x
CCOc1cc2c(cc1OCC)C(CC(=O)O)N(C(=O)Nc1ccc(OC)cc1)CC2 (centres undefined),18,x
C=CCN1C(=O)CC(N2CCOCC2)C1=O (centres undefined),6,-0.4
O=C(OC1CCc2ccccc2C1=O)c1ccc(O)cc1 (centres undefined),-4,x
CC(C)(O)c1cc(=N)sc2nc3ccccc3n12,4,-4.1
O=C(Cn1c2c(c(-c3ccccc3Cl)cc1=O)CCC2)NCCCN1CCOCC1,8,x
CC(C)=NNC(=O)c1cccc2cc[nH]c12,12,x
Cc1ccc(NC(=O)/C(C#N)=N/Nc2ccc(S(=O)(=O)N3CCOCC3)cc2)c(C)c1,-1,x
COc1ccc(F)cc1S(=O)(=O)NCC1COC2(CCCCC2)O1 (centres undefined),4,x
CCOc1ccc(S(=O)(=O)NCCC(=O)OC2CCOC2=O)cc1 (centres undefined),13,x
CSc1nnc(-c2csc(S(=O)(=O)Nc3cccc(C(F)(F)F)c3)c2)n1C,3,x
O=C1CC(C(=O)N2CCN(C(=O)C3CC3)CC2)CN1Cc1ccco1 (centres undefined),3,x
Cc1onc(-c2ccccc2)c1C(=O)N1CCC(C)CC1,26,x
O=C(Nc1ccccc1)C(CC(=O)N1CCOCC1)C(=O)c1ccccc1 (centres undefined),11,x
C=CCNc1oc(COc2cccc(Cl)c2)nc1C#N,2,-10
O=C(Nc1nc(-c2ccc3c(c2)OCO3)cs1)c1cc2ccccc2oc1=O,8,x
O=C(Cc1ccc(Cl)cc1)NCCN1CCOCC1,6,-2.2
NC(=S)CN1CCCC1=O,10,-0.1
CC1CCCCN1C(=O)COC(=O)/C=C/c1ccc2ccccc2n1 (centres undefined),-7,x
CCN(C(=O)CSc1nc(N)cc(=O)[nH]1)C1=CCCC1,-8,x
Cc1oc(-c2ccc(Cl)cc2)nc1CN1CCCC(C(=O)N2CCN(C(=O)c3ccco3)CC2)C1 (centres undefined),8,x
Cc1ccc2cccc(OCC(=O)N3CC(C)CC(C)C3)c2n1 (centres undefined),7,x
O=C(O)CNS(=O)(=O)/C=C/c1ccccc1,-1,x
CCN1C(=O)c2ccc(-c3ccc(C=C4C(=O)NC(=O)NC4=O)o3)cc2C1=O,-1,12
Cc1csc(SCc2ccc(C(=O)O)cc2)n1,-13,x
Cc1cccc(C)c1NC(=S)NNC(=O)c1ccncc1,x,-2.3
CCc1ccc(OCCCn2cc(/C=C3/C(=N)N4C=CSC4=NC3=O)c3ccccc32)cc1,12,3.4
Cc1ccc(NC2=NCCOC2)cc1,8,x
O=C(O)C1CCC(CNS(=O)(=O)c2ccccc2)CC1 (centres undefined),3,x
O=C(Nc1ccc(S(=O)(=O)N2CCCCCC2)cc1)c1nc2ncccn2n1,5,x
N#CCC(=O)N1CCN(c2ccccc2)CC1,-1,-1.1
CC1=C(C#N)C(=O)N(C)C(=O)/C1=C/c1ccc(-c2ccccc2C(=O)O)o1,13,x
O=c1ccnc(SCc2ccc(Br)cc2)[nH]1,7,x
CC1CC(N2CNc3c(c(=O)n(C)c(=O)n3C)C2)CC(C)(C)C1 (centres undefined),x,-2.6
Cn1c(=O)[nH]c(=O)c2c1nc(N1CCCC1)n2CCSc1ncccn1,9,-4.8
COc1ccc(C)cc1Cn1c(S(C)(=O)=O)nc2ccccc21,6,-0.3
O=C(Nc1nnc(NC(=O)c2ccccc2O)s1)c1ccccc1O,7,x
CC(=O)ON1C(C)(C)Cc2noc(N)c2C1(C)C,-5,-1.1
Cc1nn(C)cc1NC(=O)Nc1ccc(F)cc1,x,-1.1
Cc1ccccc1-c1c(-c2ccc(O)c(C)c2O)n[nH]c1C,9,x
CN(C)C(=O)c1cc(F)c(F)c(F)c1F,10,x
COc1cc(S(=O)(=O)NCc2cccnc2)ccc1Cl,-22,x

# Random excerpt: five entries already listed, in no set order.
SMILES,Sa helicase inh,MgrA DNA FP
O=C(Nc1ccc(S(=O)(=O)N2CCCCCC2)cc1)c1nc2ncccn2n1,5,x
O=C1CC(C(=O)N2CCN(C(=O)C3CC3)CC2)CN1Cc1ccco1 (centres undefined),3,x
Cc1onc(-c2ccccc2)c1C(=O)N1CCC(C)CC1,26,x
Cc1ccc(NC(=O)/C(C#N)=N/Nc2ccc(S(=O)(=O)N3CCOCC3)cc2)c(C)c1,-1,x
CCN(C(=O)CSc1nc(N)cc(=O)[nH]1)C1=CCCC1,-8,x

# Next records follow.
SMILES,Sa helicase inh,MgrA DNA FP
O=C(COCC(=O)N1CCN(c2ccccc2)CC1)N1CCN(c2ccccc2)CC1,-14,x
COc1ccc(Cc2n[nH]c(=O)o2)cc1OC,x,-2.6
CC(=O)n1nc(-c2ccc(Cl)cc2)nc1NCc1ccc(F)cc1,15,-1.2
O=C(COC(=O)c1ccc2ccccc2n1)NC1CC1,-10,1.4
Cc1nc(SCC(=O)NCc2ccc(Cl)cc2)c(C#N)c(C)c1Cl,6,-0.2
CC(C)CCNC(=O)c1csc2c1CCCC2,11,5.0
CCn1c(O)c(/C=C2\C=C(C)N=C2C)c(=O)[nH]c1=S,3,1.9
Cc1cc(C(=O)Nc2ccc(CN3CCS(=O)(=O)CC3)cc2)no1,x,-0.3

# Compound profiles (already shown). Order of values: Sa helicase inh | MgrA DNA FP
# CC(C)CCNC(=O)c1csc2c1CCCC2 as listed: 11 | 5.0
# O=C(COC(=O)c1ccc2ccccc2n1)NC1CC1 as listed: -10 | 1.4

# (next part)
SMILES,Sa helicase inh,MgrA DNA FP
CC(C)(O)C#Cc1ccc(C(=O)NCc2ccccc2)s1,6,x
CN(C)C(CC(=O)Nc1ccc(Nc2ccccc2)cc1)C(=O)O (centres undefined),7,x
CCC(C)NC(=O)NCc1ccccc1F (centres undefined),14,-0.9
C=CCN(CC=C)C(=O)CN1C(=O)c2ccccc2C1=O,19,-0.7
O=C(O)CCc1ccc(-c2cccs2)o1,11,9.6
CCc1cc(C(=O)O)no1,6,-8.2
CCN(C1CCCCC1)S(=O)(=O)c1cccc(S(=O)(=O)N2CCCC2)c1,5,-6.0
Cn1cc(/C=C(\C(=O)O)C(C(=O)O)=C2CCCCC2)c2ccccc21,7,7.6
Cc1c(-c2nc3cc(Cl)ccc3n2Cc2ccccc2)cc(C#N)n1C,10,x
Cc1ccc(CCC(=O)Nc2ccc(C(C)C)cc2)o1,3,-1.4
CC(C)N(CC(=O)c1cccs1)Cc1ccccc1,-10,x
O=C(Nc1ccc2c(c1)N(Cc1ccccc1)C(=O)c1ccccc1S2)NC1CC1,5,-2.9
COC(CNC(=O)Cn1ncc2ccsc2c1=O)OC,14,-0.6
Cc1nn(-c2ccccc2)c(C)c1NC(=S)NC(=O)c1cccs1,20,x
CC1CCN(CCNC(=O)c2ccc(NC(=O)C3CCCO3)cc2)CC1 (centres undefined),0,x
CN(C)Cc1c(O)ccc2cc(-c3nc4ccccc4s3)c(=O)oc12,-452,x
CCN(C1=NS(=O)(=O)c2ccccc21)c1ccccc1,20,x
Cc1nc(NN)nc(NCc2ccccc2)n1,9,-1.1
CC(C)OC(=O)CSc1nnc(-c2ccc(O)cc2)n1-c1ccccc1,7,0.7
O=C(CCn1c(=S)[nH]c2ccccc2c1=O)N1CCc2ccccc2C1,7,x
Cn1cc(CCC(=O)N2CCC(C(N)=O)CC2)c2ccccc21,7,x
CN1C(=O)CC(C(=O)Nc2ccc(F)cc2)SC1=Nc1cccc(C(F)(F)F)c1 (centres undefined),x,0.6
CC(C)CNCC1OCCCCO1,-12,x
CC1=Nc2cc(C(=O)NC3CCCC3)ccc2Sc2ccccc21,3,x

# Additional entries.
mol	Sa helicase inh	MgrA DNA FP
CCOC(=O)c1cc(-c2ccc(OC)c(S(=O)(=O)N3CCCc4ccccc43)c2)on1	11	x
COC(=O)C(C)Oc1cc2oc(=O)c3c(c2cc1Cl)CCC3 (centres undefined)	24	x
O=C(CSC1=NCCS1)c1ccc2c(c1)OCCO2	14	-2.8
CCCN(CC1CC1)C(=S)Nc1ccc(OCC)cc1	5	-1.6
NNC(=O)c1sc(-c2ccccc2)cc1N	-30	x
CCOc1cc(C2C(C(=O)OCCSCC)=C(C)NC3=C2C(=O)CC(c2ccccc2)C3)ccc1O (centres undefined)	x	-1.1
CSc1ccc(-c2cccc(F)c2F)cc1	x	-0.8
CCCCOC(=O)Nc1ccc(C(N)=O)cc1	-19	x
Cc1ccccc1NC(=O)COc1ccc(N2CC(C(N)=O)CC2=O)cc1 (centres undefined)	3	-1.0
Cc1c(C(=O)Nc2cc(-c3cccc(F)c3)no2)sc2nc3n(c(=O)c12)CCCCC3	2	x
COC(=O)C1C2C=CC3(CN(Cc4ccccc4)C(=O)C13)O2 (centres undefined)	9	x
O=C(CCCc1nc(-c2ccccc2)no1)N1CCOCC1	-2	2.0
CN1c2ccccc2C(C)(C)C12CCCC(=O)N2 (centres undefined)	8	x
CCC(CC)C(=O)Nc1c2c(nn1-c1cccc(C)c1)CSC2	16	x
Cc1onc(-c2ccccc2)c1NC(=O)Nc1ccc(-n2ccc(C(F)(F)F)n2)cc1	-6	x
COc1ccc(Cl)cc1NC(=O)COCC(=O)O	x	1.3
N=C1/C(=C/c2cccn2Cc2ccc(Cl)cc2)C(=O)N=C2SC=CN12	1	0.3
CC(C)COc1ccc(C(=O)Nc2ccc(C(=O)NCC3(c4ccccc4)CC3)cc2)cc1	13	0.0
COc1ccc(SCC(=O)c2cc(C)n(C3CC3)c2C)cc1	-9	x
O=C(OC1CCOC1=O)c1c2c(nc3ccccc13)CCCCC2 (centres undefined)	0	x
COC(=O)C(C(=O)OC)=C(SC)SC	10	x
COc1cc(/C=C/C(=O)N2CCC(c3nc4ccccc4o3)CC2)cc2c1OCCO2	4	x
CCN(Cc1ccccc1)C(=O)c1cc2c(s1)-c1ccc(Cl)cc1SC2	-4	-2.4
O=S(=O)(NN1CCOCC1)c1cc(S(=O)(=O)c2ccccc2)cs1	x	-1.2
COc1ccc(NC(=O)NCCCN2CCCc3ccccc32)c(OC)c1	25	x
Cc1noc2nc(C(F)(F)F)[nH]c(=O)c12	7	-1.9
CCOC(=O)C1CCN(C(=O)c2ccc3c(=O)n4nc(Nc5ccccc5OC)sc4nc3c2)CC1	8	x
CC1=C(C(=O)Nc2ccc(C(=O)NCc3cccnc3)cc2)SCCO1	-3	x
O=[N+]([O-])c1ccc(C2Nc3ccccc3O2)s1 (centres undefined)	x	4.9
COc1cccc(C(O)c2nccn2C)c1OC (centres undefined)	11	0.9
COCC(=O)NCc1nc2ccccc2[nH]1	-1	x
N#Cc1ccc(NC(=O)CONC2=NCCCCC2)cc1	0	x
CCC(=O)c1ccc(OCC(=O)NCCCN2CCCC2=O)cc1	-5	x
CCCNC(=O)c1cc(-c2cccnc2)nc2ccccc12	15	x
Cc1ccc(C2/C(=C(\O)c3ccc(Br)cc3)C(=O)C(=O)N2CCCN(C)C)cc1 (centres undefined)	4	2.5
Cc1ccc(S(=O)(=O)N/N=C2/CSCC2NC(=O)c2ccccc2)cc1 (centres undefined)	11	1.1
Cc1cccc(-n2c(Sc3nnnn3-c3ccccc3)nc3ccccc3c2=O)c1C	-4	x
COC(=O)c1cc2ccc3c(c2oc1=O)CN(c1ccccc1)CO3	19	x
C=Cn1c(C)c(C(C#N)=C(C#N)C#N)c2c1CCCC2	-5	19
CSc1cccc(NC(=O)CSc2nnc(COc3ccccc3)o2)c1	-10	1.2
O=C(CN1CCC(C(=O)O)CC1)Nc1ccccc1Oc1ccccc1	-12	x
CCOC(=O)c1ccc(N2C(=O)Cc3ccccc3C2=O)cc1	-8	0.3
C=CS(=O)(=O)C(C)CC(N)=O (centres undefined)	7	x
COc1ccccc1CNC1CCCCC1C (centres undefined)	30	-3.4
CC(C)C(C(C#N)C#N)C1C(=O)NC(=S)NC1=O (centres undefined)	-1	x
COc1cccc(/C=N/O)c1O	x	0.4
Nc1[nH]c(=S)sc1C(=O)Nc1nccs1	7	37
O=C(CN1CCN(c2ncnc3scc(-c4ccccc4)c23)CC1)Nc1ccc(Br)cc1	x	-2.4
CN1CCN(c2ncc3c(=S)[nH]c(=S)[nH]c3n2)CC1	x	-1.4
CN=c1scc(-c2cc(C)n(CCC(C)C)c2C)n1C	1	x
CCCCSc1ccc(NCCC(=O)c2ccco2)cc1	7	-5.8
c1ccc2[nH]c(C3CCCO3)nc2c1 (centres undefined)	12	x

# Single entries from the results shown.
# For MgrA DNA FP, `CN1CCN(c2ncc3c(=S)[nH]c(=S)[nH]c3n2)CC1` shows -1.4
# For Sa helicase inh, `Nc1[nH]c(=S)sc1C(=O)Nc1nccs1` shows 7
# For Sa helicase inh, `CN=c1scc(-c2cc(C)n(CCC(C)C)c2C)n1C` shows 1
# For MgrA DNA FP, `O=C(CN1CCN(c2ncnc3scc(-c4ccccc4)c23)CC1)Nc1ccc(Br)cc1` shows -2.4
# For Sa helicase inh, `c1ccc2[nH]c(C3CCCO3)nc2c1` (centres undefined) shows 12
# For Sa helicase inh, `CCCCSc1ccc(NCCC(=O)c2ccco2)cc1` shows 7

# Compound activity as filed in PubChem.
